# High-throughput results as filed in PubChem BioAssay.
# SARS PLP yeast – inhibitors of SARS-CoV papain-like protease in yeast | 0.19% of 330,000 active | Potency, µM (doses to about 32.9 µM), inactives show at the highest dose activity, positive = growth rescue | S. cerevisiae expressing SARS-CoV PLpro, growth rescue; control for the full effect not named in the record; note: 0% is about no effect; nearly all actives have a fitted effect of over 55% in size; growth read by luminescence after 48 h
# NS1 inh – inhibitors of influenza NS1 protein function; S. cerevisiae slowed by influenza A NS1, growth recovery by OD600; Potency, µM (titrated, usually from 46.1 µM), without a hit: at the highest dose activity, positive = more growth; 0.4% of 270,000 active; AID 2326; note: actives are rising curves; nearly all actives have a fitted effect of over 50% in size
#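 Recovery from NS1-induced slow growth read by OD600 in budding yeast switched to galactose assay medium (pH 6.0, -URA) at 1:100 dilution. Compound 23 nl per well; the matching strain lacking NS1 serves as control.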
# Cruzain inh Det – cruzain (T. cruzi) inhibition with detergent; P25779; 0.43% of 200,000 active; AID 1478; Potency, µM, without a hit: max response, negative = inhibition, hits mostly inhibitors; purified cruzain, Z-FR-AMC fluorescence, 0.01% Triton; active = well fitted curve in the direction sought with a large enough effect; inconclusive = small, poorly fitted or top-dose-only effect, or another doubt; inactive = no such curve, though single readings can be large; an effect the other way counts as inactive or inconclusive;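 note: plate controls were neutral wells for no effect and buffer without enzyme for full effect; nearly all actives have a fitted effect of over 40% in size; top concentration of the series not given in the record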
# Target sequence (P25779 123-467 limits assumed): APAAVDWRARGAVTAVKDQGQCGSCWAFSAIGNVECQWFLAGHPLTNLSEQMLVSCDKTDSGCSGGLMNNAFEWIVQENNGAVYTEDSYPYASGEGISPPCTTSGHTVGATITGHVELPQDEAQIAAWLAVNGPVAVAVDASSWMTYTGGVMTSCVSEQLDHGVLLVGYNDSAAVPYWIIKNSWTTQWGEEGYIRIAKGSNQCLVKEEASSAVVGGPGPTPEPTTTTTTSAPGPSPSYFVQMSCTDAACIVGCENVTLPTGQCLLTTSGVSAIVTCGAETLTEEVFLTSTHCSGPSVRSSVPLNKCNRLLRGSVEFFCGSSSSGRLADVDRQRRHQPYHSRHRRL
#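 Sodium acetate buffer (100 mM, pH 5.5) containing 5 mM DTT and 0.01% Triton X-100 hosted 1.5 nM cruzain and test compound for 15 min at room temperature. Cleavage of 2 uM Z-FR-AMC was then tracked by fluorescence.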
# Cruzain inh noDet – cruzain (T. cruzi) inhibition without detergent. Potency, µM, inactives show max response, negative = inhibition, hits mostly inhibitors. P25779. purified cruzain, Z-FR-AMC fluorescence, no detergent. 2.3% of 200,000 active; active = well fitted curve in the direction sought with a large enough effect; inconclusive = small, poorly fitted or top-dose-only effect, or another doubt; inactive = no such curve, though single readings can be large; an effect the other way counts as inactive or inconclusive;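 note: plate controls were enzyme without inhibitor for no effect and buffer without enzyme for full effect; nearly all actives have a fitted effect of over 40% in size; top concentration of the series not given in the record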
#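 Detergent-free condition (0.00005% Triton X-100) in acetate buffer pH 5.5 with DTT. 1.5 nM enzyme and compound were pre-mixed 15 min, then 2 uM Z-FR-AMC substrate added; reaction progress from fluorescence change between first and third reads (60 s).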
# Lassa entry inh – blocks Lassa virus binding to or entry into cells; Lassa virus pseudotype entry inhibition, cell reporter; control for the full effect not named in the record; Potency, µM (doses to about 37.9 µM), for inactives: at the top dose activity change, negative = inhibition, usual class: inhibitors; 1.2% of 300,000 active; AID 540256; active means well fitted inhibition curve with a large enough effect; inconclusive means small, poorly fitted or top-dose-only effect, or effect the other way; inactive means flat fitted curve, though single readings scatter; tested in HEK293 cells; note: % is set by controls: 0 for no effect and ±100 for the full control effect; nearly all actives have a fitted effect of over 50% in size; luciferase read-out
# RE007 growth inh – less growth of the S. pombe RE007 Vpr strain | Potency, µM (doses to about 92.2 µM), for the others: top-dose activity change, negative = less growth | S. pombe RE007 Vpr strain, BacTiter-Glo ATP luminescence, 24 h; control for the full effect not named in the record | AID 651644 | 0.21% of 360,000 active; active = well fitted falling curve with a large enough effect; inconclusive = small, poorly fitted or top-dose-only effect; inactive = no such curve, though single readings can be large or run the other way;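 note: % is set by controls: 0 for no effect and ±100 for the full control effect; nearly all actives have a fitted effect of over 50% in size; the assay follows cell death caused by Vpr and the record does not say whether a fall means rescue or toxicity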
#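 Fission yeast strain RE007, carrying one chromosomally integrated HIV-1 vpr copy, was seeded at OD 0.01 in PMG+AL medium with 23 nL pinned compound. After 24 h at 30 °C and 99% humidity, viability was read by BacTiter-Glo luminescence.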
# MARV entry inh – inhibitors of Marburg virus binding or cell entry; Marburg virus pseudotyped entry inhibition, cell reporter; control for the full effect not named in the record; about a third of the inactives were read at about 46 µM; Potency, µM (top dose mostly 37.8 µM), inactives show at the highest dose activity change, negative = inhibition, usual class: inhibitors; 1.8% of 300,000 active; active = well fitted inhibition curve with a large enough effect; inconclusive = small, poorly fitted or top-dose-only effect, or effect the other way; inactive = flat fitted curve, though single readings scatter; tested in HEK293 cells; about a fifth of its hits are not listed in these tables; note: % is set by controls: 0 for no effect and ±100 for the full control effect; luciferase read-out
# 2A StopGo – lowers the luciferase signal of an FMDV 2A StopGo reporter; Potency, µM (titrated, usually from 57.9 µM), inactives show at the highest dose signal change, negative = less light; human cells with a luciferase reporter of 2A StopGo recoding; control for the full effect not named in the record; 1.2% of 410,000 active; active = well fitted falling curve with a large enough effect; inconclusive = small, poorly fitted or top-dose-only effect; inactive = no such curve, though single readings can be large or run the other way; tested in HEK293T cells; note: % is set by controls: 0 for no effect and ±100 for the full control effect; nearly all actives have a fitted effect of over 45% in size; luciferase light after 4 h
# The depositor's hits bear a star; ? = inconclusive; / = not tested or not shown; & = joins results of further samples; [ ] = dose if it differs, or a comment. Unless noted, calls come from the whole dose curve; as a rule, active means well fitted rising curve with a large enough effect; inconclusive means small, poorly fitted or top-dose-only effect; inactive means no such curve, though single readings can be large or run the other way. Potency is the fitted concentration of half-maximal effect.
SMILES,SARS PLP yeast,NS1 inh,Cruzain inh Det,Cruzain inh noDet,Lassa entry inh,RE007 growth inh,MARV entry inh,2A StopGo
Cc1ccc2c(CN3CCC(C)CC3)cc(=O)oc2c1C,4.8%,0.4%,/,/,/,-9.0%,/,69.7%[activator]
CC(=O)/C(=N/Nc1ccc(Br)cc1)N1CCCc2ccccc21,-12.3%,-55.6%,/,/,?,1.2%,-23.9%,?
Nc1nc2ccc(C(=O)NCCOC(=O)C3CCCCC3)cc2s1,-1.0%,-3.3%,/,/,3.6%,-11.1%,1.5%,15.1%
CCOc1ccc(CNC(=O)CN2C(=O)CCn3nc(-c4cn(C)c5ccccc45)cc32)cc1OC,/,/,-3.0%,?,0.6%[46.1 µM],/,/,0.8%
O=C(O)CCn1cc(C2CC(c3ccccc3)=NN2c2ccccc2)c(-c2ccccc2)n1 (stereo not drawn),-1.5%,-22.6%,/,/,-23.3%[46.1 µM],4.6%,?,-28.9%
Cc1[nH]nc2nc(SCC(=O)NC3CCCCC3)n(-c3ccc(Br)cc3)c(=N)c12,-2.2%,6.7%,/,/,/,6.8%,/,?
Cc1nc(-c2ccccc2)nn1-c1ccc([N+](=O)[O-])cc1,/,/,/,/,5.8%[46.1 µM],10.7%,?,20.2%
CCCCCC(O)(CCCCC)C(=O)NNc1ccccc1,1.3%,?,1.6%,-0.9%,-14.8%,76.5%,-30.6%,-12.3%
COc1cccc(C(C(=O)NC(C)(C)C)N(C(=O)CCC(=O)Nc2cc(C)on2)C(C)(C)C)c1OC (stereo not drawn),10.5%,-4.3%,0.0%,?,?,2.1%,-21.9%,0.0%
COc1ccc(Br)cc1C(=O)Nc1cccc(C)c1,-0.1%,-47.8%,8.3%,-5.6%,0.5%,8.1%,?,-13.7%
COc1cc(OC)c(NC(=O)CCn2cccn2)cc1Cl,/,/,-1.0%,-2.1%,-2.9%[46.1 µM],/,/,-5.6%
O=C(CNC(=O)c1ccccc1C(F)(F)F)N/N=C/c1cccs1,12.2%,?,/,/,/,5.2%,/,-11.2%
CCn1c(-c2ccccc2O)n[nH]c1=S,14.4%,-11.1%,3.4%,-0.4%,1.9%,6.3%,4.2%,-14.2%
Fc1ccc2nc(Nc3nc4c(s3)CCCC4)sc2c1,7.3%,-3.1%,1.7%,31.6µM*,?,?,-15.6%[46.1 µM],34.7%[activator]
CCOC(=O)c1c(C)oc2nc(C)nc(NCCCN3CCN(c4ccccc4)CC3)c12,/,/,0.6%,-17.6%,-0.8%[46.1 µM],/,/,-4.5%
CCOC(=O)c1c(NC(=O)c2cc(-c3cccc(Cl)c3)on2)sc(C(C)=O)c1C,/,/,-2.5%,0.6%,-17.4%[46.1 µM],/,-10.8%[46.1 µM],-5.2%
COc1ccc(S(=O)(=O)NC(CC(=O)NCCc2ccc(OC)c(OC)c2)c2ccco2)cc1 (stereo not drawn),2.8%,-4.3%,-2.8%,6.7%,-14.2%,2.4%,-0.1%&-2.7%,-16.3%
CCOC(=O)c1ccc(NC(=O)CSc2nc(SC)ns2)cc1,/,-144.5%,-4.1%,-3.7%,-0.5%,-24.1%,?,-18.5%
O=C(Nc1ccccc1F)c1ccc(-c2cccc([N+](=O)[O-])c2)o1,-6.3%,-7.1%,/,/,/,17.3%,/,24.8%
COc1ccc(OCCCC(=O)N(C)CC(=O)Nc2c(C)cccc2C)cc1,-2.4%,/,/,/,-2.8%,-14.4%,-8.2%,6.0%
CC(C)Sc1nc2c(c(=O)[nH]1)C(c1cccs1)C1=C(CC(C)(C)CC1=O)N2 (stereo not drawn),3.4%,-5.6%,-11.3%,-20.7%,/,-7.5%,/,?
COC(=O)c1cc2ccsc2n1Cc1cc(=O)n2ccccc2n1,5.1%,-31.2%,-10.3%,3.1%,-0.2%,-6.5%,8.1%,/
COC(=O)c1cc(NC(=O)CSc2nnc(CN3CCOCC3)n2C)ccc1Cl,-1.1%,1.6%,-4.2%,-2.9%,2.0%,8.2%,-21.8%[46.1 µM],-28.9%
COc1ccc(NC(=O)C2CCCN2C(=O)NCc2ccccc2)c(OC)c1 (stereo not drawn),14.0%,3.4%,-2.1%,-3.6%,1.1%,1.0%,5.3%,6.0%
CN1C(=O)/C(=C\c2ccc(OC(=O)c3ccco3)cc2)SC1=S,-2.9%,-11.6%,/,/,?,-19.9%,4.0%[46.1 µM],7.1%
C=CCN1C(=O)C2(C(C(=O)OCC)=C(N)Oc3c2c(=O)oc2ccccc32)c2ccccc21 (stereo not drawn),-14.7%,-30.8%,-4.9%,6.3%,2.0%,-18.9%,11.4%&11.4%,-19.9%
CC1(C)CC(=O)C(C=NCCN2CCN(C(=O)c3ccc(F)cc3)CC2)=C(O)C1,7.5%,2.8%,-1.7%,20.7%,13.7%,12.4%,-1.2%,4.4%
COc1ccc(N2C(=O)CSC23C(=O)N(Cc2cccc(C(F)(F)F)c2)c2ccccc23)cc1 (stereo not drawn),/,/,-10.9%,11.5%,-13.2%[46.1 µM],/,/,-23.5%
O=C(NCCNC(=O)c1ccccc1Br)c1ccccc1Br,0.8%,15.0%,/,/,/,1.4%,/,3.3%
CC1(C2CCC3C4CCC5CC6(CCC5(C)C4C(=O)CC32C)OCCO6)OCCO1 (stereo not drawn),/,/,/,/,-21.1%[46.1 µM],9.3%,?,-24.3%
COc1ccc(-c2nnc(SC3CCOC3=O)n2C2CCCCC2)cc1OC (stereo not drawn),3.1%,-1.2%,4.2%,13.1%,0.1%,10.2%,9.1%,10.4%
CC(C)CCNC(=O)C1CCC(CNS(=O)(=O)c2cccc3nsnc23)CC1 (stereo not drawn),1.6%,-13.6%,0.5%,18.2%,1.0%[46.1 µM],-9.3%,-6.5%&-6.5%[46.1 µM],-13.2%&-22.3%
Cc1ccc(S(=O)(=O)N2CCCCC2)cc1NC(=O)CCCOc1ccccc1,-0.7%,/,/,/,?,7.4%,-28.1%[46.1 µM],-10.1%
CN(CCNC(=O)c1ccc(CS(=O)(=O)c2c(Cl)cccc2Cl)o1)CCc1ccccc1,-3.0%,4.7%,/,/,16.4%[46.1 µM],-12.2%,-30.6%[46.1 µM],-1.8%
COc1ccc(C(=O)CN2C(=O)N(c3ccc(C(C)=O)cc3)S(=O)(=O)c3ccccc32)cc1,/,/,-0.5%,?,?,/,/,-9.8%
CCOc1ccc(-n2c(=O)c3c4c(sc3n(CC(=O)NCc3ccco3)c2=O)CCC4)cc1,-4.8%,5.9%,-2.6%,?,11.5%,-6.0%,2.8%[46.1 µM],-18.4%
Cc1cc2nc(-c3ccc(SCC(=O)N4CCc5ccccc54)nc3)[nH]c2cc1C,-9.0%,22.9%,-2.2%,15.8µM*,?,-7.3%,?,/
O=C(Cc1cccc2ccccc12)OCn1nnc2ccccc2c1=O,-7.5%,-17.2%,-5.8%,-8.4%,/,2.9%,/,0.1%
O=C(c1sccc1Cl)N1CCN(Cc2ccc3c(c2)OCO3)CC1,0.4%,4.8%,/,/,-2.5%,5.3%,15.1%,-28.9%
CCOc1ccc2nc(NC(=O)c3nc(SC(C)C)ncc3Cl)sc2c1,/,/,1.5%,-10.0%,-8.7%[46.1 µM],/,17.4%[46.1 µM],-18.0%
COC(=O)c1c(NC(=O)CCN2CCOCC2)sc2c1CCCC2,-4.6%,-39.6%,/,/,/,6.3%,/,-9.2%
COc1ccc(S(=O)(=O)N2CCN(C(=O)C3CC3)CC2)cc1,9.1%,?,/,/,8.3%,-3.3%,4.6%[46.1 µM],-2.7%
CCCn1nc(NC(=O)c2cccs2)c2cc3cccc(C)c3nc21,-3.2%,8.4%,/,/,-4.9%,8.5%,-2.4%[46.1 µM],11.5%
COc1ccc(-c2cc(=O)c3cc(OC)ccc3[nH]2)cc1,-2.9%,-2.7%,0.4%,-5.3%,-2.9%,6.2%,-14.3%,-2.2%
COc1cccc(OC)c1C(=O)Nc1ccc(S(=O)(=O)Nc2nccc(C)n2)cc1,/,/,-1.4%,-6.2%,-9.2%[46.1 µM],/,?,40.1%[activator]
COc1cccc(C(=O)Nc2ccccc2OCc2cc(=O)n3cc(C)ccc3n2)c1,/,/,2.6%,-14.2%,-2.0%[46.1 µM],/,/,-20.4%
CN(C)c1nc2c(cnn2C)c(=O)[nH]1,/,/,/,/,2.7%,-3.9%,-0.6%,-3.8%
CCOC(=O)CNC(=O)C(CC(C)C)NC(=O)C1CCCCC1 (stereo not drawn),-10.4%,15.6%,?,?,-1.8%,-0.9%,-10.5%,13.8%
Cc1cc(C)n(-c2nc(NCCN(C)C)c3c4c(sc3n2)CCCC4)n1,0.9%,-4.6%,/,/,?,-9.7%,?,?
COc1ccc(OC)c(CCNc2ncnc3onc(-c4ccc(F)cc4)c23)c1,/,/,-6.1%,?,?,/,/,?
CC(C)[C@H](Nc1nc(-c2ccccc2)nc2c1oc1ccccc12)C(=O)O,5.6%,-37.4%,-8.8%,1.3%,2.0%,3.7%,5.1%,-26.1%
CCc1ccc(S(=O)(=O)NCc2csc(-c3cccnc3)n2)s1,-50.3%,-163.0%,-4.1%,-9.2%,/,-2.5%,/,-2.7%
O=C(NCCC(=O)N1CCN(S(=O)(=O)c2ccccc2F)CC1)Nc1ccccc1,5.9%,/,/,/,7.7%,29.7%,?,-14.0%
CCOc1ccc2c(C)c(C(=O)O)oc2c1OCC,5.3%,-2.2%,-8.4%,-5.4%,11.4%,-6.3%,10.0%,3.9%
Cc1ccccc1C(=O)n1nc(-c2ccco2)nc1NCc1cccs1,/,/,-5.4%,-13.5%,-3.5%[46.1 µM],/,11.9%[46.1 µM],-0.1%
CON=C1C=C(C)C(=O)C(C)=C1C,/,/,/,/,24.7%,20.7%,7.1%,-7.8%
Cc1ccc(CSc2nnc(SCC(=O)N/N=C/C=C/c3ccccc3[N+](=O)[O-])s2)cc1,3.7%,-12.8%,0.0%,?,?,5.6%,?,0.0%
Cc1ccc(CNC(=O)Nc2ccccc2)cc1,-4.6%,-79.5%,1.1%,-2.7%,-14.6%,5.0%,-20.0%,61.7%[activator]

# This is a random part of the collection; any-hit rate near 4.7%.
